Screening results as filed in PubChem.
VDR inh: inhibitors of human vitamin D receptor; P11473; VDR-SRC2-3 peptide fluorescence polarization, 2 h; 0.93% of 400,000 active; Potency, µM, for inactives: max response, negative = inhibition, most hits filed as inhibitors; active = well fitted inhibition curve with a large enough effect; inconclusive = small, poorly fitted or top-dose-only effect, or another doubt; inactive = no such curve, though single readings can be large or run the other way; note: series mostly up to about 120 µM
Target sequence (P11473 whole entry, looked up): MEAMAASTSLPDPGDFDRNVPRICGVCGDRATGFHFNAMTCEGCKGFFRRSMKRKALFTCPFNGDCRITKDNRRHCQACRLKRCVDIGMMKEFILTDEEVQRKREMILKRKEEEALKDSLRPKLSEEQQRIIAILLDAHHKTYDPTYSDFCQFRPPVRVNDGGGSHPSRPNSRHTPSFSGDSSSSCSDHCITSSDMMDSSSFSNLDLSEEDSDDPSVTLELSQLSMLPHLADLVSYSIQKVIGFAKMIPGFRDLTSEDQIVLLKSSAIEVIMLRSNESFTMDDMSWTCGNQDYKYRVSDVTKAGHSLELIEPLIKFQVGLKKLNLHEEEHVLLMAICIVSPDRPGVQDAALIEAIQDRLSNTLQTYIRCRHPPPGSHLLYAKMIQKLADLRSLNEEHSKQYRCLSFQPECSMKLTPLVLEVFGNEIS
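Fluorescence polarization assay measuring small-molecule disruption of VDR binding to the coregulator peptide SRC2-3. Compounds were pin-transferred (23 nl) into the reagent mix and incubated 2 h at room temperature before reading.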
* hit, by the source's call; & = joins results of further samples; [ ] = dose if it differs, or a comment. % is set by controls: 0 for no effect and ±100 for the full control effect; potency is the fitted concentration of half-maximal effect. The list is partial; rates above refer to the full screens.

COC(=O)C1=NN(c2ccccc2OC)C2C(=O)N(c3ccccc3OC)C(=O)C12 (stereo not drawn) was read as VDR inh -5%.
Screening CC(C)CC(NC(=O)C(NC(=O)C1CCC(=O)N1C(=O)OCc1ccccc1)C(C)C)C(=O)N1CCCC1C(N)=O (stereo not drawn) returned VDR inh -14%.
For COc1ccccc1CNC(=O)COC(=O)c1cc2ccccc2o1 the results were VDR inh 2%.
Screening COc1cc(NC(=O)Nc2nnc(N3CCCCCC3)s2)cc(OC)c1 returned VDR inh 7%.
`COc1ccccc1-n1cnc2cc(NC(C)=O)ccc21` gave VDR inh 3%.
For Cc1ccc(-n2c(C)nnc2SC(C)C(=O)N2CCCC2)cc1 (stereo not drawn) the results were VDR inh 2%.
For O=C(CN1C(=O)NC2(CCCC2)C1=O)NCc1cccc(Cl)c1 the results were VDR inh -29%.
For Cc1ccc(Cl)c(OCC(=O)Nc2ccc3c(c2)OCCO3)c1 the results were VDR inh -21%.
For Cc1c(N=Cc2cc3c(cc2[N+](=O)[O-])OCO3)cccc1[N+](=O)[O-] the results were VDR inh 89µM*.
CC(C)c1ccc(C2=NC(c3ccncc3)=Nc3ccc(F)cc3N2)cc1 was read as VDR inh 20%.
Screening CCCC(CCC)c1nnc(NC(=O)c2ccco2)s1 returned VDR inh -2%.
`COc1cccc(NC(=O)c2oc3ccc(S(=O)(=O)N4CCC5(CC4)OCCO5)cc3c2C)c1` gave VDR inh 9%.
CN(C(=O)CCc1nnc(CCCCc2ccccc2)o1)C1CC(C)(C)NC(C)(C)C1 was read as VDR inh -9%.
Screening Cc1ccc(N2NC(=O)/C(=C\c3cc4c(cc3[N+](=O)[O-])OCO4)C2=O)cc1C returned VDR inh 50µM*.
`CCOC(=O)Cc1nnc(NC(=O)c2ncn[nH]2)s1` gave VDR inh 6%.
CCOC(=O)c1cccc(NS(=O)(=O)c2cc3c(cc2C)NC(=O)CO3)c1 was read as VDR inh 16%.
For C=CCOC(=O)COc1ccc2c(C)c(C)c(=O)oc2c1 the results were VDR inh -14%.
For CC(Oc1ccccc1)C(=O)N1CCCc2ccccc21 (stereo not drawn) the results were VDR inh -6%.
`CCOC(=O)C(C)Sc1nnc(NC(=O)c2cccc([N+](=O)[O-])c2C)s1` (stereo not drawn) gave VDR inh -14%.
N#CCCn1cc(C(=O)CN2C(=O)NC3(CCCCCC3)C2=O)c2ccccc21 was read as VDR inh -11%.
Screening CCCNC(=O)c1ccc2c(c1)ncn2-c1ccc(C)cc1C returned VDR inh 14%.
For CCc1c(O)nc(SCC(N)=O)n(-c2ccccc2F)c1=O the results were VDR inh 3%.
Screening Cc1ccc2ccc3c(c2n1)NS(=O)(=O)c1ccc(C(F)(F)F)cc1-3 returned VDR inh -20%.
`NNC(=O)CC(=O)NC1(Cc2ccc(O)cc2)CCCCC1` gave VDR inh -9%.
Screening Cn1c2ccccc2c2c(C(=O)N3CCN(c4ccc(F)cc4)CC3)cn(C3CCCC3)c(=O)c21 returned VDR inh -5%.
Screening CN(C)CCCO/N=C(\c1ccccc1)c1ccncc1 returned VDR inh 5%.
Screening Cc1ccc(-n2ncc3c(=O)n(CC(=O)N4CCCCCC4)cnc32)cc1 returned VDR inh 4%.
N=c1c(C(=O)NCc2ccccc2)cc2c(=O)n3ccccc3nc2n1Cc1ccco1 was read as VDR inh -7%.
CCOC(=O)c1c(C)sc(-c2c(-c3cccc(Cl)c3)[nH]c3c2c(=O)n(C)c(=O)n3C)c1O was read as VDR inh -13%.
For O=C(COc1ccc(Cl)cc1[N+](=O)[O-])N1CCCCC1 the results were VDR inh 7%.
O=C(COC(=O)CN1C(=O)COc2ccccc21)NC1CCCCC1 was read as VDR inh -12%.
CC(=O)Nc1ccc(-c2cc(-c3ccccc3)nc(-c3ccccc3)n2)cc1 was read as VDR inh -2%.
Screening CCCc1cc(=O)oc2c(C)c(OCC(=O)N3CCC(C(=O)O)CC3)ccc12 returned VDR inh -7%.
For CCCCN(C(=O)C1CC1)C1CCS(=O)(=O)C1 (stereo not drawn) the results were VDR inh -1%.
Screening Cc1ccc2c(C)c(C(=O)N(C)Cc3ccncn3)oc2c1C returned VDR inh 0%.
`O=C(O)c1cc(-c2cc(C(=O)O)c3ccccc3n2)ccc1O` gave VDR inh 37%[activator].

Three entries already listed, ordered by heavy-atom count, largest number first:
CCOC(=O)c1c(C)sc(-c2c(-c3cccc(Cl)c3)[nH]c3c2c(=O)n(C)c(=O)n3C)c1O was read as VDR inh -13%.
Screening Cc1ccc(-n2ncc3c(=O)n(CC(=O)N4CCCCCC4)cnc32)cc1 returned VDR inh 4%.
O=C(COC(=O)CN1C(=O)COc2ccccc21)NC1CCCCC1 was read as VDR inh -12%.

Going on with the list.
For O=C(Cn1ncc2c3ccccc3n(Cc3ccccc3)c2c1=O)Nc1ccccc1C(F)(F)F the results were VDR inh 13%.
For COc1cc(OC)c(NS(=O)(=O)c2cc3[nH]c(=O)c(=O)[nH]c3cc2C)cc1Cl the results were VDR inh -1%.
For COc1ccccc1N/C(N)=N/c1nc(CSc2ccc(C)cc2)cc(=O)[nH]1 the results were VDR inh inconclusive.
`CCOC(=O)c1sc2nc(C)nc(Nc3ccc(OC)c(OC)c3)c2c1C` gave VDR inh -18%.
Screening CC(C)CC(=O)Nc1nnn(C)n1 returned VDR inh 1%.
`COc1cccc(S(=O)(=O)NCc2ccc(C(=O)N3CCN(C)CC3)cc2)c1` gave VDR inh 8%.
`O=c1[nH]c(=S)[nH]c2sc3c(c12)CCCCCC3` gave VDR inh inconclusive.
`CCOC(=O)C1CCC(CN(Cc2ccccc2C)S(=O)(=O)c2ccc([N+](=O)[O-])cc2)CC1` (stereo not drawn) gave VDR inh 0%.
For Nc1[nH]nc2nc3ccccc3nc12 the results were VDR inh -1%.
`CSc1ccccc1-c1n[nH]c(=S)o1` gave VDR inh -18%.
Screening CCCN(CCC)CCCNC(=O)CC1Nc2ccccc2NC1=O (stereo not drawn) returned VDR inh 2%.
Screening CCOc1ccc2c(c1)c1nc3ccccc3nc1n2C returned VDR inh 42%[activator].
Screening CCC(C)NC(=O)c1nc2c(nnn2Cc2ccccc2Cl)c(=O)[nH]1 (stereo not drawn) returned VDR inh -18%.
`CCOc1ccc(N=Nc2c(=O)[nH]n3c(=O)cc(C)[nH]c23)cc1` gave VDR inh -4%.
For CC(C)(C)c1nc2c(Br)cc(Br)cc2c(=O)o1 the results were VDR inh 6%.
Screening Cc1oc(-c2ccc(Cl)cc2)nc1Cn1c(=O)cc(-c2ccccc2)c2c(C)nn(C)c21 returned VDR inh 0%.
For CCOc1ccc(CNC(=O)C2CCCN(S(=O)(=O)N3CC(C)CC(C)C3)C2)cc1OC (stereo not drawn) the results were VDR inh -8%.
Screening O=C(Nc1ccccn1)c1ccccc1 returned VDR inh -2%.
CCC(=O)Nc1ccccc1Sc1ncnc2scc(-c3ccccc3)c12 was read as VDR inh inconclusive.
Screening CC(=O)NC1=NN(C(C)=O)C(c2cccs2)S1 (stereo not drawn) returned VDR inh 13%.
Screening O=C(Cn1c(=O)nc(-c2ccccc2)c2cc(Cl)ccc21)NCCc1ccc(Cl)cc1 returned VDR inh -24%.
O=C(CN1C(=O)C2CC=CCC2C1=O)OCC(=O)c1ccc(Cl)c([N+](=O)[O-])c1 (stereo not drawn) was read as VDR inh 13%.
For Cc1ccc(CSCC(=O)N2CCN(Cc3ccc4c(c3)OCO4)CC2)cc1 the results were VDR inh -5%.
`CN1CCN(c2nc(-c3ccccc3)ncc2S(=O)(=O)c2ccccc2)CC1` gave VDR inh -2%.
`CCc1cccc2c(C#N)cn(CC(=O)NCCOC)c12` gave VDR inh 6%.
`COc1ccc(NC(=O)CSc2ncc(-c3ccc(Cl)cc3)[nH]2)cc1OC` gave VDR inh -14%.
Cc1ccc(C(=O)Nc2nc(=O)n(C(=O)c3ccccc3Cl)s2)cc1 was read as VDR inh 18µM*.
Cn1nnc2cc(C(=O)NCCC3=CCCCC3)ccc21 was read as VDR inh -1%.
For Cc1cc(NC(=O)CN2C(=O)NC3(CCCCCC3)C2=O)no1 the results were VDR inh 19%.
For O=C(CN1C(=O)C2C3CC(C(Br)C3Br)C2C1=O)OCC(=O)c1cccc([N+](=O)[O-])c1 (stereo not drawn) the results were VDR inh -23%.
`CCCC(=O)Nc1nnc(CC(=O)N2CCCC2)s1` gave VDR inh 0%.
Cc1cccc2c(=O)cc(C)n(CC(=O)N3CCCCC3)c12 was read as VDR inh 7%.
Screening COc1cccc(CNCCSc2nnnn2C)c1OCc1ccc(F)cc1 returned VDR inh 10%.
For Cc1ccc(S(=O)(=O)Nc2ccccc2C(=O)OC(C)C(=O)Nc2ccc3ccccc3c2)cc1[N+](=O)[O-] (stereo not drawn) the results were VDR inh -20%.
Screening O=C(Cc1ccccc1)N1CCN(S(=O)(=O)c2cccc([N+](=O)[O-])c2)CC1 returned VDR inh -4%.
For Cc1ccc(S(=O)(=O)NC2=NCN(CCc3ccccc3)CN2)cc1 the results were VDR inh -11%.

Structures listed so far that have a CF3 group:
Screening Cc1ccc2ccc3c(c2n1)NS(=O)(=O)c1ccc(C(F)(F)F)cc1-3 returned VDR inh -20%.
For O=C(Cn1ncc2c3ccccc3n(Cc3ccccc3)c2c1=O)Nc1ccccc1C(F)(F)F the results were VDR inh 13%.

Further structures.
O=c1c2ccccc2nc2n1C(CBr)CS2 (stereo not drawn) was read as VDR inh 7%.
c1ccc(-c2cc(-c3ccccc3)c3c(n2)-c2ccccc2OC3)cc1 was read as VDR inh 3%.
For CCOC(=O)c1ccc(CN(Cc2ccccc2)S(=O)(=O)c2ccc(C)cc2)cc1 the results were VDR inh 11%.
For O=[N+]([O-])c1ccc(Nc2nc(Cl)nc(NCCO)n2)cc1 the results were VDR inh 9%.
COc1cc(/C=N/NC(=O)c2cc(C3CC3)[nH]n2)ccc1O was read as VDR inh -7%.
O=C(NCC(c1cccnc1)N1CCN(c2ccccc2F)CC1)C1CCCCC1 (stereo not drawn) was read as VDR inh 17%.
CC(Cc1ccccc1)Nc1ncnc2c1ncn2C1OC(CO)C(O)C1O (stereo not drawn) was read as VDR inh 0%.
Screening COc1ccccc1CNC(=O)C1CCN(S(=O)(=O)c2c(C)noc2/C=C/c2cccs2)CC1 returned VDR inh -21%.
For O=C1CC(c2ccc(S(=O)(=O)NCc3ccncc3)cc2)CN1 (stereo not drawn) the results were VDR inh -15%.
Screening CCc1ccc(NC(=O)CC2S/C(=N/N=C3CCCCCC3)NC2=O)cc1 (stereo not drawn) returned VDR inh 13%.
Screening Nc1ccccc1C(=O)NCC1(c2ccccc2)CCCC1 returned VDR inh -3%.
`Cc1ccccc1N1CCN(Cc2ccc(Br)o2)CC1` gave VDR inh -23%.

Of the compounds above, 4 contain bromine:
For CC(C)(C)c1nc2c(Br)cc(Br)cc2c(=O)o1 the results were VDR inh 6%.
For O=C(CN1C(=O)C2C3CC(C(Br)C3Br)C2C1=O)OCC(=O)c1cccc([N+](=O)[O-])c1 (stereo not drawn) the results were VDR inh -23%.
O=c1c2ccccc2nc2n1C(CBr)CS2 (stereo not drawn) was read as VDR inh 7%.
`Cc1ccccc1N1CCN(Cc2ccc(Br)o2)CC1` gave VDR inh -23%.

Back to the main list with the four entries that preceded the break.
For O=C1CC(c2ccc(S(=O)(=O)NCc3ccncc3)cc2)CN1 (stereo not drawn) the results were VDR inh -15%.
Screening CCc1ccc(NC(=O)CC2S/C(=N/N=C3CCCCCC3)NC2=O)cc1 (stereo not drawn) returned VDR inh 13%.
Screening Nc1ccccc1C(=O)NCC1(c2ccccc2)CCCC1 returned VDR inh -3%.
`Cc1ccccc1N1CCN(Cc2ccc(Br)o2)CC1` gave VDR inh -23%.
O=C(Cc1ccccc1)NCC(=O)N/N=C/c1cccnc1 was read as VDR inh 2%.
For O=C(NNc1cc(N2CCOCC2)nc(N2CCOCC2)n1)c1ccc([N+](=O)[O-])cc1 the results were VDR inh -8%.
Screening COc1ccc(-c2cc(C(=O)Nc3c(C)n(C)n(-c4ccccc4)c3=O)no2)cc1OC returned VDR inh 2%&-8%.
For O[C@@H]1COC2[C@@H](O)CO[C@@H]21 (stereo partly drawn) the results were VDR inh -10%.
For CCN(CC(=O)NC1CCCC1)S(=O)(=O)c1ccc(Br)cc1 the results were VDR inh 2%.
For CCCCCc1nnc(NC(=O)c2ccc(N3CCCC3=O)cc2)s1 the results were VDR inh -9%.
COc1ccc([N+](=O)[O-])cc1NC(=O)C(C)N1CCCC1 (stereo not drawn) was read as VDR inh -15%.
For Cc1noc(C)c1S(=O)(=O)N1CCN(S(=O)(=O)c2ccccc2C#N)CC1 the results were VDR inh 1%.
Screening c1ccc(-c2nnsc2-c2nc3ccccc3[nH]2)cc1 returned VDR inh -5%.
For CCOC(=O)CCC(=O)Nc1nnc2n1CCS2 the results were VDR inh 5%.
For CCn1c(=NC(=O)c2ccc(S(=O)(=O)N3CCCC3)cc2)sc2cc(Br)ccc21 the results were VDR inh -1%.
For CCN(C(=O)CN1CCN(Cc2ccccc2)CC1)c1c(N)n(Cc2ccccc2)c(=O)[nH]c1=O the results were VDR inh inconclusive.
For CC(OC(=O)c1ccc(-c2ccc(O)cc2)cc1)C(=O)NC1CCCCC1C (stereo not drawn) the results were VDR inh -24%.
`O=C(/C=C/c1c[nH]c2ccccc12)c1cccc2ccccc12` gave VDR inh -15%.
Screening C=CCNCCOc1c(C)cc(C)cc1Cl returned VDR inh 3%.
`CC(=O)Nc1ccc(S(=O)(=O)N2CCC(C(=O)N[C@@H](Cc3ccccc3)C(=O)O)CC2)cc1` gave VDR inh 33%[activator].
O=C(O)c1cc(N(Cc2ccccc2O)Cc2cc(O)ccc2O)ccc1O was read as VDR inh 50µM*.
Screening Cc1ccc(S(=O)(=O)Nc2cccc(C(=O)N3CCOCC3)c2)cc1 returned VDR inh 7%.
`COc1ccc(C/C(C)=N/NC(=S)Nc2ccc(Cl)cc2)cc1` gave VDR inh -5%.
Screening O=C(CSc1nnnn1C1CCCC1)NCc1cccs1 returned VDR inh 7%.
